# Biofilm kill mix – mixture kills Candida albicans biofilm cells; AID 1242; inhibition, % at 7.6 µM; C. albicans biofilm persisters + clotrimazole, fluorescence viability; primary screen in compound mixtures of four per well; hit rate 0.02% among 120,000;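 active = inhibition above 30.3% in the primary screen of four-compound pools, then above 30% when the compound was retested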;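 note: compounds exposed to preformed 24 h biofilms for 48 h; the number belongs to the whole pool; some results filed as inactive read as strong as hits; inactives centre near 12; 0% = biofilm with clotrimazole alone and 100% = kill control; retested singly at about 60 µM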
#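 Test system: C. albicans CAF4-2 wild-type biofilms; buffer or medium: RPMI/MOPS medium, pH 7.0; schedule: 24 h biofilm formation, then 48 h compound exposure, 37 °C; detection: Alamar Blue fluorescence; measure: percent inhibition of biofilm viability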
# Active calls of the source: *. An excerpt; the hit share may differ from the screen's.
Compound | Biofilm kill mix
CCCc1[nH]nc2c1C(c1ccoc1)C(C#N)=C(N)O2 (stereo unspecified) | -2
O=c1[nH]c(S)nc2sc3c(c12)CCCC3 | 12
CCN(CC)S(=O)(=O)c1ccc(N)cc1 | 20
CCCn1cnc2cc(NC(=O)c3cccs3)ccc21 | -14
Cc1ccc(N/C=C/C(=O)c2ccccc2)cc1C | 10
O=C(NCc1ccco1)C(=O)NCc1ccccc1Cl | 8
CN(C)c1nc(-c2cccnc2)nc(-c2ccc(Cl)cc2)c1C#N | -1
COc1ccc(NC(=S)N2CCCC(c3nc4ccc(C)cc4[nH]3)C2)c(OC)c1 (stereo unspecified) | -3
CCOC(=O)c1sc2nc(C)nc(Nc3ccccc3)c2c1C | -4
CNC(=O)Nc1ccc(S(N)(=O)=O)cc1 | 23
CCCCCCNCC1OCc2ccccc2CO1 | 6
CCOC(=O)c1sc(Nc2nc(OC)cc(OC)n2)nc1C | 7
COc1ccc(C(=O)NC(=S)N2CCN(c3ccc([N+](=O)[O-])cc3)CC2)cc1 | 13
CCCCC(=NCCc1c(C)[nH]c2ccc(OC)cc12)C1=C(O)CC(c2ccccc2)CC1=O (stereo unspecified) | 7
CCN(CC)S(=O)(=O)c1ccc(C)c(NC(=S)NC2CCCCC2)c1 | 16
Cc1ccc2nc(NCc3ccc(F)cc3)c3nncn3c2c1 | 19
Cc1cccc(-n2cnc(C(=O)NNC(=S)Nc3ccccc3)c2)n1 | 14
COC(=O)CN1C(=S)N(C)C(=O)/C1=C/c1cccs1 | 12
COc1ccc(CCNC(=S)NC(=O)c2ccccc2)cc1C | 13
COc1cc(C(=O)NCCc2nc3ccccc3n2C)cc(OC)c1OC | 19
Cc1oc(-c2cccc3ccccc23)nc1CN1CCC[C@H]1CO | 30
COc1cc2c(cc1OC)CN(Cc1cc(=O)oc3c(C)c(C)ccc13)CC2 | 9
COc1ccc(C(=O)NCCCN2CCOCC2)cc1S(=O)(=O)N1CCCc2ccccc21 | 14
CC(C(=O)N1CCCc2ccccc21)N1CCN(c2ccccn2)CC1 (stereo unspecified) | 11

# Single entries from the results shown.
# COc1ccc(CCNC(=S)NC(=O)c2ccccc2)cc1C | Biofilm kill mix: 13
# Cc1ccc2nc(NCc3ccc(F)cc3)c3nncn3c2c1 | Biofilm kill mix: 19

# Remaining list, next part.
Compound | Biofilm kill mix
O=C(NCc1ccc2c(c1)OCO2)c1cc2c(s1)CSC2 | 0
O=Cc1ccc(-c2cccc([N+](=O)[O-])c2)o1 | 9
CCN1CCCC1CNCC(O)COc1ccc(C(C)(C)C)cc1C (stereo unspecified) | -3
COc1cccc(NC(=O)CN(C)CC(=O)Nc2ccc(C)cc2Cl)c1 | 18
Clc1ccc(-c2c[n+](Cc3cccc(Cl)c3)c3n2CCC3)cc1 | 8
Cc1cccc(C(=O)N2CCC(c3nc4ccccc4s3)CC2)c1 | -5
CCC(C)(C)NC(=O)C(c1ccccn1)N(C(=O)c1csnn1)c1ccc(C)c(C)c1 (stereo unspecified) | 15
Cc1c(C(=O)N/N=C/C(C)C)[nH]c2ccc([N+](=O)[O-])cc12 | 14
O=C(c1cc2ccccc2o1)N1CCC(N2CCC(C(=O)N3CCCC3)CC2)CC1 | 5
O=C(CSc1nnnn1-c1ccc(Cl)cc1)Nc1cccnc1Cl | 17
CC(C)(C)NC(=O)Nc1cccc(Cl)c1Cl | 5
Brc1ccc(-c2nn[nH]n2)cc1 | 21

# For convenience, some entries already given:
Compound | Biofilm kill mix
O=C(CSc1nnnn1-c1ccc(Cl)cc1)Nc1cccnc1Cl | 17
CC(C)(C)NC(=O)Nc1cccc(Cl)c1Cl | 5
Brc1ccc(-c2nn[nH]n2)cc1 | 21

# (next part)
Compound | Biofilm kill mix
O=C(Nc1ccc(F)cc1)Nc1nnc(-c2ccco2)s1 | 11
Cc1cccc(NC(=O)CSc2nc(N)c(NC(=O)c3cccs3)c(=O)[nH]2)c1 | 8
COc1cc(OC)cc(-n2nnnc2SCC(=O)NCc2cccs2)c1 | 10
COc1ccc(C(=O)Nc2ccc(SC(F)F)cc2)cc1 | 19
NS(=O)(=O)c1ccc(NC(=O)/C=C/c2ccccc2[N+](=O)[O-])cc1 | 20
Cc1nn2cc(-c3ncc(C(F)(F)F)cc3Cl)cnc2c1Br | -2
O=C(NCCc1ccccn1)c1cc(-c2ccc(Cl)cc2)nc2ccccc12 | 18
O=C(Cc1n[nH]c(=O)[nH]c1=O)N/N=C/c1c(O)ccc2ccccc12 | 15
COc1ccc(C2CC(=O)C3=C(C2)Nc2ccccc2NC3c2coc3ccccc3c2=O)cc1OC (stereo unspecified) | -7
CCNC(=O)NC(=O)C(C)OC(=O)c1oc2ccccc2c1CSC1CCCCC1 (stereo unspecified) | 13
CCCOc1cc(C)c(S(=O)(=O)N2CCOCC2)cc1C | 13
CCN(C(=O)COC(=O)c1c(C)nn(-c2ccccc2)c1C)C1CCS(=O)(=O)C1 (stereo unspecified) | 18

# Pulled by structure from the list above, 4 records:
Compound | Biofilm kill mix
Cc1cccc(NC(=O)CSc2nc(N)c(NC(=O)c3cccs3)c(=O)[nH]2)c1 | 8
Cc1nn2cc(-c3ncc(C(F)(F)F)cc3Cl)cnc2c1Br | -2
CCCOc1cc(C)c(S(=O)(=O)N2CCOCC2)cc1C | 13
COc1ccc(C(=O)Nc2ccc(SC(F)F)cc2)cc1 | 19

# (more compounds)
Compound | Biofilm kill mix
Cn1ccnc1SCC(=O)Nc1ccc(F)c([N+](=O)[O-])c1 | 4
COc1ccc(S(=O)(=O)NNC(=O)c2ccc(-n3c(C)ccc3C)cc2)cc1 | 13
Cc1cc(=O)n2c3ccccc3n(CC(O)CN3CCN(Cc4ccccc4)CC3)c2c1C#N (stereo unspecified) | 30
Cn1c(=O)c2c(-c3ccccc3F)c3c(nc2n(C)c1=O)-c1ccccc1C3O (stereo unspecified) | 3
Cc1ccc(NS(=O)(=O)N(C)C)cc1 | 6
O=c1[nH]c2ccccc2nc1-c1ccccc1 | 11
Cc1ccc(C(=O)NCC(=O)OC(C)C(=O)Nc2ccc(N(C)C)cc2)s1 (stereo unspecified) | 13
Cc1[nH]c2ccccc2c1/C=N/NC(=O)C1CC1(c1ccccc1)c1ccccc1 (stereo unspecified) | 3
Cn1c(N)c(C(=O)Nc2ccc(-c3ccccc3)cc2)sc1=S | 14
O=C1NC(CCc2ccccc2)C(=O)N1Cc1ccccc1Cl (stereo unspecified) | 10
Cc1cc(-c2cc(-c3ccc(Cl)cc3)on2)nc(NCC2CC2)n1 | 13
O=C(Nc1ccc(-n2ccc(C(F)(F)F)n2)cc1)Nc1cccc(Cl)c1 | 29
COc1ccc(S(=O)(=O)N2CCCCCC2)cc1N(C)S(=O)(=O)c1ccc(C)cc1 | 13
Cc1cc(NC(=O)CCSc2ccccc2)no1 | 15
CC1=C(/C=C/C(C)=C/C=C/C(C)=C/C(=O)O)C(C)(C)CCC1 | 22
CCCOc1ccc(Cn2ccnc2)cc1[N+](=O)[O-] | 15
Cc1c(C(=O)Nc2cc(S(=O)(=O)N3CCOCC3)ccc2N2CCOCC2)oc2ccccc12 | 10
Cc1cc(C(=O)O)c(C)n1Cc1ccncc1 | 26
Cc1ccc(NC(=S)NCCc2ccccc2)c(C)c1 | 14
CN1CCN(C(=O)c2cnn3c(C(F)(F)F)cc(-c4cccs4)nc23)CC1 | 11
Cn1c(Cc2nc(-c3cnccn3)no2)nnc1SCC(=O)Nc1ccccc1 | 9
S=C(NCCc1ccccc1)NC1CC2CCC(C1)N2Cc1ccccc1 (stereo unspecified) | 20
CCOC(=O)C(CC)(CCC(=O)O)c1csc(Nc2ccc(C)cc2)n1 (stereo unspecified) | 9
O=C(Cc1cccs1)Nc1ccc(-c2nnc(-c3ccco3)o2)cc1 | 9
O=C(NC1CCCCC1)C1CCCN(S(=O)(=O)c2cccc3cccnc23)C1 (stereo unspecified) | 20
CCOC(=O)C(C(=O)OCC)C(C)(C)/C(C)=N\Nc1ccc([N+](=O)[O-])cc1[N+](=O)[O-] | 4
COc1ccc(C(=O)Nc2ccc(N3CCN(Cc4ccccc4)CC3)cc2)cc1 | 18
CCn1c(SCC(N)=O)nc2sc3c(c2c1=O)CCN(C)C3 | 17
O=C(Cn1cc([N+](=O)[O-])cn1)N1CCCc2ccccc21 | 10
Cc1ccc(Cl)cc1NC(=O)COC(=O)CC(C)(C)C | 18
C=C[C@@](C)(O)CC[C@@H]1[C@@]2(C)CCCC(C)(C)[C@@H]2CC[C@@]1(C)O | 12
CCOC(=O)Cn1c(C)c(Br)c(COC)c(C#N)c1=O | 18
C#CCNC(=O)/C=C/c1ccc(C)cc1 | 9
Cc1ccc(C(=O)N2CCN(C(=O)c3ccc(C)cc3)C2)cc1 | 15
COc1cccc(N/C(SCc2ccccc2C)=C(/C#N)C(=O)NCc2cccs2)c1 | 28
Cc1cccc(N2CCN(C(=O)c3cn4ccccc4n3)CC2C)c1 (stereo unspecified) | 18
CCN1CCN(S(=O)(=O)CC2(C)C3CCC2(C)C(=O)C3Br)CC1 (stereo unspecified) | 3
NNC(=O)COc1cccc2cccnc12 | 12
CCCCC1=NN(C(=O)c2ccco2)C(O)(C(F)(F)F)C1 (stereo unspecified) | 2
CCOC(=O)c1cnc(N)nc1C(F)(F)F | -11
N#Cc1c(NC(=O)c2ccc(Br)o2)n(-c2ccccc2)c2nc3ccccc3nc12 | 18
OC(CNCc1ccccc1)COCc1ccc(Cl)cc1 (stereo unspecified) | 7
C=CCn1ccc2c([N+](=O)[O-])cccc2c1=O | 2
COc1cc(Nc2ccccn2)cc(C(=O)Nc2cccc(C(F)(F)F)c2)c1 | 17
Cc1c(CCOC(=O)CC23CC4CC(CC(C)(C4)C2)C3)sc[n+]1Cc1ccc([N+](=O)[O-])cc1 | 17
Cc1cccc(OCc2nc(-c3cccnc3)no2)c1 | 8
COc1ccc(-c2cc(C(F)(F)F)nc(SCCC(=O)N3CCCC3)n2)cc1 | 14
CCN(CC)Cc1cc(O)c(CN(CC)CC)cc1O | 21

# 3 structures out of the list, ordered by formula weight, smallest number first.
Compound | Biofilm kill mix
C=CCn1ccc2c([N+](=O)[O-])cccc2c1=O | 2
CCOC(=O)c1cnc(N)nc1C(F)(F)F | -11
CCN1CCN(S(=O)(=O)CC2(C)C3CCC2(C)C(=O)C3Br)CC1 (stereo unspecified) | 3

# Further entries.
Compound | Biofilm kill mix
COc1cc(S(=O)(=O)Nc2ccc(C(=O)NCC(=O)O)cc2)ccc1NC(C)=O | -1
CCC(=O)N(NC1=NS(=O)(=O)c2ccccc21)S(=O)(=O)c1ccc(C)cc1 | 22
COc1ccc(Nc2nc(N)nc(CSC(=S)N3CCOCC3)n2)cc1 | -3
Cn1cnnc1-c1cccc(NS(=O)(=O)c2ccc(N3CCCC3=O)cc2)c1 | 20
CCOC(=O)c1ccc(NC(=O)Nc2ncc(Cl)cc2Cl)cc1 | 10
Cc1cc(/C(N)=N/OC(=O)Nc2cccc(C(F)(F)F)c2)no1 | 20
COC(=O)c1ccc(CN2CCN(CC(C)C)C(CCO)C2)cc1 (stereo unspecified) | 3
CCOC(=O)CCn1c(=S)n(CCC(=O)OCC)c2ccccc21 | 25
O=C(CN(Cc1ccccc1)S(=O)(=O)c1ccc2c(c1)OCCO2)N/N=C/c1cccc(Br)c1 | 17
O=C(OCc1nc2ccccc2s1)c1ccco1 | 7
O=C(CSc1ncn[nH]1)Nc1nsc(-c2ccccc2)n1 | -4
COc1ccccc1CN1C(=O)c2ccccc2C1C(=O)NC1CCC(C)CC1 (stereo unspecified) | 12
Cc1ccc(-c2nnc(N3CCN(C(=O)c4cccs4)CC3)c3ccccc23)cc1 | 14
CCCN1CCN(c2nc(-c3cccs3)nc3ccccc23)CC1 | 6
Cc1ccc(NC(=O)CSc2nnc(C)n2-c2ccccc2)cc1 | 17
CCCCN(C)CCC(=O)Nc1ccc(Cl)cc1 | 8
COCC(C)N=C1NN=C(c2cc(C)n(Cc3ccccc3Cl)c2C)CS1 (stereo unspecified) | 11
Cc1cccc2cc(C#N)c(NCCNS(=O)(=O)c3ccccc3)nc12 | 19
CNC(=S)Nc1ccc2nc(C)oc2c1 | 8
CN(Cc1cn(C)nc1-c1cccc(Cl)c1)CC1CCCCO1 (stereo unspecified) | -5
COc1cc(/C=N/Nc2ccc(C(F)(F)F)cn2)cc(OC)c1O | 9
Cc1nccn1CCCNC(=O)CC1C(=O)NCCN1Cc1ccccc1C(F)(F)F (stereo unspecified) | 28
COc1ccccc1NC(=S)N(CCN1CCCCCC1)Cc1cccs1 | 16
COc1ccc([C@@H]2Sc3ccccc3N(CCN(C)C)C(=O)[C@@H]2OC(C)=O)cc1 | 16
CC1(C)Oc2ccc3ccc(=O)oc3c2C(/C=N/O)C1=O (stereo unspecified) | 12
CCN(CC)S(=O)(=O)c1cc([N+](=O)[O-])ccc1N=Nc1c(O)n(C)c2ccccc12 | 6
O=C(OCc1cc(Cl)ccc1OC(F)F)c1cccnc1 | 10
CC(C)=NNc1nc(-c2ccc(N3C(=O)CCC3=O)cc2)cs1 | 15
CC(=O)n1cc(/C=C2/N=C(c3ccccc3)OC2=O)c2ccccc21 | 12
COc1ccc(C2/C=C\CN(CC3CC3)CC(=O)N2Cc2ccc(F)cc2)cc1 (stereo unspecified) | 12
O=C(Cn1cc(C(F)(F)F)ccc1=O)Nc1ccccc1 | 18
